VDR inhibitor = Inhibitors of the vitamin D receptor (VDR): qHTS. VDR-SRC2-3 peptide fluorescence polarization, 2 h. 400,000 compounds, 0.93% hits. Potency, µM, for inactives: max response, negative = inhibition, most hits filed as inhibitors. Vitamin D3 receptor (Homo sapiens), P11473. AID 504847, 2011; active = well fitted inhibition curve with a large enough effect; inconclusive = small, poorly fitted or top-dose-only effect, or another doubt; inactive = no such curve, though single readings can be large or run the other way; also: series mostly up to about 120 µM
Target sequence (P11473 whole entry, looked up): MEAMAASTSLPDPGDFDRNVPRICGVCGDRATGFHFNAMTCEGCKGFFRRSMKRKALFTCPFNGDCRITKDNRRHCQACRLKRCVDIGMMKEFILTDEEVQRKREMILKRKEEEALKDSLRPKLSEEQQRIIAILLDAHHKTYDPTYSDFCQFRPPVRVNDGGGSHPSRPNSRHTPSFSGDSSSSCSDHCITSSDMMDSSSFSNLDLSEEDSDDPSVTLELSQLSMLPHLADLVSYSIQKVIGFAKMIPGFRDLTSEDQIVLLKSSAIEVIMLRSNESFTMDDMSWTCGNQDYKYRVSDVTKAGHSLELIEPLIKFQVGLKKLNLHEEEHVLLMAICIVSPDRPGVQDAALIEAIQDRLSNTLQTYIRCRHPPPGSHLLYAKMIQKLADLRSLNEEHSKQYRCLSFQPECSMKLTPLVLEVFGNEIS
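After 23 nl compound addition and a short centrifugation, plates sat for 2 hours at ambient temperature; polarization of fluorescence then indicated loss of VDR binding to peptide SRC2-3.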
Starred values were filed as active, the others as inactive; u = inconclusive; & = joins results of further samples; [ ] = another dose, or the depositor's remark. % is scaled to controls: 0 for no effect and ±100 for the full control effect; potency is read from the fitted curve at half-maximal effect.

VDR inhibitor | canonical_smiles
21% | CCOCC(=O)Nc1nc2ccc(OC)cc2s1
-14% | Cn1ncc2nc(SCC(=O)Nc3ccc(Br)cc3F)n(Cc3ccccc3)c(=O)c21
5% | O=C(NCCN1CCCC1)c1ccc(Cn2c(=S)[nH]c3cc4c(cc3c2=O)OCO4)cc1
-5% | O=C(CCCOc1ccccc1)Nc1ccc2c(c1)OCCO2
-24% | COc1ccc(-c2cc(-c3ccccc3)nc(=O)[nH]2)cc1
-1% | Cc1nc2ccn(Cc3ccco3)c(=O)c2cc1C(=O)NCc1ccc(Cl)cc1
-14% | CCN(C(=O)COC(=O)/C=C/c1ccc(O)c(OC)c1)C1CCS(=O)(=O)C1 (configuration not stated)
2% | CCN(CCCNC(=O)CCn1c(=O)[nH]c2ccccc2c1=O)c1cccc(C)c1
-19% | CC1CCN(C(=O)c2[nH]cnc2C(=O)Nc2nccs2)CC1
6% | COc1ccc2c(c1)c1nnc(SCC(=O)N3CCCCC3C)nc1n2C (configuration not stated)
3% | CNC(=O)C1(CC(C)C)C=CCN1C(C)=O (configuration not stated)
-7% | CCCN(C(=O)C1=COCCO1)c1c(N)n(Cc2ccccc2)c(=O)[nH]c1=O
0% | O=C(N/N=C/c1cccnc1)c1cccc(S(=O)(=O)Nc2cccc(Cl)c2)c1
-9% | CC(C)(C)c1ccc(OCC(=O)NNC(=O)c2cccnc2)cc1
-7% | COc1cc(C(=O)Nc2ccc(NC(=O)c3ccc(Br)cc3)cc2)cc(OC)c1OC
-2% | CC(C)C(C)NC(=O)COC(=O)/C=C/c1ccc(S(=O)(=O)N2CCc3ccccc32)cc1 (configuration not stated)
13% | COc1ccc(NS(=O)(=O)c2ccc(SC)cc2)cc1
4% | COc1cccc(-n2c(Cn3nc(C(F)(F)F)cc3C)n[nH]c2=S)c1
-2% | COC(=O)c1ccc2c(c1)SC1=C(CCCC1=O)N2
5% | O=C(NCC(=O)N(c1ccccc1)C(C(=O)NC1CCCCC1)c1ccncc1)c1ccco1 (configuration not stated)
-10% | CCOC(=O)[C@H]1[C@H]2COc3ccc(Br)cc3[C@@H]2N2C(=O)c3ccc(C)cc3NC(=O)[C@@]12C
20% | Cc1ccc(-c2c3c(=O)n(C)c(=O)n(C)c3c3n2-c2ccccc2NC3c2ccc(C)cc2O)cc1 (configuration not stated)
-3% | S=c1[nH]cc(-c2ccccc2)n1-c1ccccc1
8% | COc1ccc(C(C(=O)NC2CCCC2)N(C(=O)c2ccoc2C)c2ccc(C)cc2)cc1 (configuration not stated)
10% | Cc1c(Cl)cccc1NC(=O)CN1C(=O)COc2ccc(S(=O)(=O)Nc3ccccc3)cc21
28% | COc1ccccc1NC(=O)CN1CCC(n2nnc3cc(F)ccc32)CC1
-11% | Cc1cccc(N2CCN(C(=S)c3ccc(-c4ccccc4[N+](=O)[O-])o3)CC2)c1
-2% | CC1CCN(S(=O)(=O)c2ccc(NC(=O)CCNC(=O)c3ccc(Cl)cc3)cc2)CC1
1% | Cc1csc(-c2cnn(-c3ccccc3)c2NC(=O)c2cccc(F)c2)n1
-7% | O=C(O)c1ccc(COCC(F)(F)C(F)F)o1
-18% | CC12CC(O)C3C(CCC4=CC(=O)CCC43C)C1CCC2=CCO (configuration not stated)
-21% | CCS(=O)(=O)N1Cc2ccccc2CC1C(=O)N(C)CC(=O)Nc1ccc(OC)cc1 (configuration not stated)
-15% | Cc1ccc(SCC(c2ccccc2)N2CCN(CCc3ccccc3)CCC2=O)cc1 (configuration not stated)
6% | CCCCN(C(=O)c1ccc([N+](=O)[O-])s1)c1c(N)n(CCCC)c(=O)[nH]c1=O
-4% | C1CCC(CNc2c3c(nc4nnnn24)CCCC3)CC1
12% | CN(Cc1ccccc1)C(=O)COC(=O)c1ccc(Cl)c(N)c1
-3% | Cc1ccc(S(=O)(=O)N2CC(=O)NC(=O)C2)cc1
-11% | CCCCOc1ccc(Cc2c(Cl)nc(SC)nc2N2CCOCC2)cc1
-16% | O=C1C2CCCN2C(=O)N1CCCN1CCN(c2cccc(Cl)c2)CC1 (configuration not stated)
u | Cc1cccc(Oc2nc3ccccn3c(=O)c2/C=C(\C#N)C(=O)NC2CCS(=O)(=O)C2)c1 (configuration not stated)
6% | COC(=O)C1CCN(C(=O)c2ccc(SC)cc2OC)CC1
7% | COc1ccc(C(=O)NN)cc1
0% | COc1cc(/C=C2/C(=O)CNC2=O)ccc1O
-2% | Cc1cc(Nc2ccccc2)nn1C(=O)c1ccccc1
-11% | Cc1onc(-c2ccccc2)c1C(=O)N/N=C/c1ccco1
-2% | Cc1csc(SCC(=O)NC2CCC(C)CC2)n1 (configuration not stated)
-11% | COc1ccccc1CCC(=O)OC(C)C(=O)Nc1c(C)n(C)n(-c2ccccc2)c1=O (configuration not stated)
11% | COc1ccc(C(CC(=O)c2ccc(O)cc2)S(=O)(=O)c2ccc(C)cc2)cc1 (configuration not stated)
-13% | CCn1c(=O)cc(N2CCN(C(=O)c3ccco3)CC2)[nH]c1=O
8% | COc1ccc(Cc2n[nH]c(=S)n(N)c2=O)cc1

Shown bar-delimited: 6 of the compounds above.
molecule | VDR inhibitor
Cc1cccc(Oc2nc3ccccn3c(=O)c2/C=C(\C#N)C(=O)NC2CCS(=O)(=O)C2)c1 (configuration not stated) | u
COC(=O)C1CCN(C(=O)c2ccc(SC)cc2OC)CC1 | 6%
COc1ccc(C(=O)NN)cc1 | 7%
COc1cc(/C=C2/C(=O)CNC2=O)ccc1O | 0%
Cc1cc(Nc2ccccc2)nn1C(=O)c1ccccc1 | -2%
Cc1onc(-c2ccccc2)c1C(=O)N/N=C/c1ccco1 | -11%

Additional compounds:
VDR inhibitor | canonical_smiles
-9% | O=C(Cc1ccccc1)N/N=C/c1cccnc1
7% | O=C(NNC(=S)NC(=O)c1ccco1)c1ccc(NC(=O)c2ccccc2)cc1
-19% | Cc1ccccc1NC(=O)c1ccc(NS(=O)(=O)c2cc(C(C)(C)C)cc(C)c2C)cc1
-21% | CC1(OC(=O)CCc2ccccc2)C(=O)C=C2C=C(c3ccc(C#N)cc3)N(CCc3ccccn3)C=C2C1=O (configuration not stated)
3% | CCOc1ccc(OCCNCc2ccc(OC(C)C(=O)N(C)C)c(OCC)c2)cc1 (configuration not stated)
4% | CC(C)CCNC(=O)C1(c2cccs2)CCOCC1
-7% | C=CCn1c(=NC(=O)C2CCCCC2)sc2cc(NC(C)=O)ccc21
5% | Cc1cc(N2CCOCC2)ccc1/C=C1\NC(=O)N(CC(=O)Nc2ccc(F)cc2)C1=O
-19% | COc1cc(/C=C(\C#N)C(=O)NCC2CCCO2)ccc1OC(C)C (configuration not stated)
u | CCCN1CNc2c(c(=O)[nH]c(=S)n2CCc2cc(C)cc(C)c2)C1
-3% | CCNC(=O)N1C(=O)C2(OCCO2)c2cc(Br)ccc21
4% | N#CCSc1nnc(-c2ccc(F)cc2)n1N
-9% | O=C(/C=C/c1ccccc1)Nc1ccc(Cl)cn1
-2% | N=c1ccn(Cc2ccc(Cl)c(Cl)c2)cc1
-18% | Cc1cccc(N2CCN(S(=O)(=O)c3c(C(=O)N4CCCCC4)c(C)n(C)c3C)CC2)c1C
0% | CCOC(=O)C(NC(C)=O)C(=O)Nc1c(C)cccc1C (configuration not stated)
4% | O=c1c(-c2cc(F)cc(F)c2)nc2cnc(N3CCOCC3)nc2n1CCc1ccccc1
11% | O=C1C=C(c2ccccc2)C(c2ccccc2)C1 (configuration not stated)
-2% | CCOC(=O)CNC(=O)C12CC3CC(C1)CC(c1ccc(C)cc1)(C3)C2
u | O=C(CSc1nnc(-c2ccccc2F)n1C1CC1)Nc1cccnc1Cl
35%[activator] | Cc1ccc(S(=O)(=O)NNC(=O)CCCCC(=O)NNS(=O)(=O)c2ccc(C)cc2)cc1
5% | COc1ccc(C(=O)N/C(=C\c2cn(S(=O)(=O)N(C)C)c3ccccc23)C(=O)NCCN2CCOCC2)cc1OC
-19% | O=C(CNC(=O)c1ccc2c(c1)OCO2)N/N=C/c1cccc([N+](=O)[O-])c1
-22% | COC(=O)C1CCN(C(=O)c2ccc3oc(Cc4ccc(Cl)cc4)nc3c2)CC1
-29% | Cc1cc2ccccn2c1C(=O)c1ccc([N+](=O)[O-])o1
-3% | CC(=O)Nc1ccc(NC(=O)c2cc(-c3cccs3)on2)cc1
1% | COc1ccc(C)cc1S(=O)(=O)NC1CCCC1
1% | Cc1ccccc1C(=O)O/N=C(\N)c1ccccc1
4% | O=C(NCc1ccco1)N1c2ccccc2Sc2ccccc21
7% | COc1cc2c(cc1NC(=O)/C=C/c1ccc([N+](=O)[O-])cc1)oc1ccccc12

Overlap with the part before: five compounds; new compounds follow.
VDR inhibitor | canonical_smiles
-3% | CC(=O)Nc1ccc(NC(=O)c2cc(-c3cccs3)on2)cc1
1% | COc1ccc(C)cc1S(=O)(=O)NC1CCCC1
1% | Cc1ccccc1C(=O)O/N=C(\N)c1ccccc1
4% | O=C(NCc1ccco1)N1c2ccccc2Sc2ccccc21
7% | COc1cc2c(cc1NC(=O)/C=C/c1ccc([N+](=O)[O-])cc1)oc1ccccc12
3% | CCC(C)Sc1cc(-c2nc3ccc(C)cn3c2NCc2ccccc2)ccc1OC (configuration not stated)
-3% | COc1ccccc1-c1nc(-c2ccncc2)no1
-14% | Cc1nn(CC(=O)Nc2cccnc2)c(=O)c2ccccc12
-3% | N=C(N)n1c(N)nc2ccccc2c1=O
-12% | O=C(CCS(=O)(=O)CCN1CCOCC1)NCNC(=O)CCS(=O)(=O)CCN1CCOCC1
10% | CCCC1CCc2c(sc(NC(=O)c3cccs3)c2C(N)=O)C1 (configuration not stated)
-4% | CCOc1ccc(Nc2nc(C)c(NC(=O)c3ccc(C)cc3)c(Nc3ccc(OCC)cc3)n2)cc1
-10% | O=c1ccccn1Cc1c(Cl)cccc1Cl
8% | N#CC1(NC(=O)CN2C(=O)NC(Cc3c[nH]c4ccccc34)C2=O)CCCCC1 (configuration not stated)
-10% | CCc1ccccc1OCC(=O)Nc1cccc(S(=O)(=O)N2CCCC2)c1
-7% | Cc1cc2cc(C#N)c(N3CCOCC3)nc2cc1Cl
10% | Cc1ccc(CNC(=O)Cc2csc3ccccc23)cc1
6% | Fc1cccc(Cl)c1CN1CCN(c2nc3ccccc3s2)CC1
-1%&13%&8% | Cn1cnc2c1c(=O)[nH]c(=O)n2C
14% | CCN(CC)CCSc1nnc2c3cc(F)ccc3n(CC)c2n1
6% | Cc1cccc(OCC(=O)NCC2(N3CCN(C)CC3)CCCCC2)c1C
-11% | CSCC[C@H](NC(=O)[C@H](CC(C)C)N(C)C(=O)[C@@H]1CCCN1C(=O)[C@H](Cc1ccccc1)NC(=O)[C@H](Cc1ccccc1)NC(=O)CCC(C)N)C(=O)O (some centres not stated)
-4% | Cc1cccc(NC(=O)CCOc2ccccc2)c1
-1% | Cc1nc2ccccc2nc1N/N=C/c1ccc(O)cc1
-3% | Cc1cc(C)n2c(nc3ccccc32)c1C(=O)NCc1ccccc1
-3% | O=C(NCc1ccc(F)cc1)c1cc2c(s1)-c1ccccc1SC2
0% | COc1ccc(CNC(=O)Cn2c(SCC(=O)Nc3ccc(C)c(C)c3)nc3ccccc32)cc1
-14% | O=C(Nc1ccc(Cl)c(Cl)c1)C1CCN(C(=O)c2ccco2)CC1
-26% | COc1cc(CCN2C(=O)c3cccc4cccc(c34)C2=O)c(S(=O)(=O)N2CCC(C)CC2)cc1OC
7% | Cc1ccc2cc(C#N)c(SCC(=O)NNC(=O)Cc3ccccc3)nc2c1
9% | Cc1ccc(S(=O)(=O)NCCC(=O)OCC(=O)N(Cc2ccccc2)C(C)(C)C)cc1
25% | O=C(CCC1CCCC1)NNC(=O)c1cc2ccccc2cc1O
-7% | CC(C)COP(=O)(OCC(C)C)C(Nc1ccccc1)c1ccccc1 (configuration not stated)
-6% | CC(OC(=O)c1cccs1)C(=O)NC1CCCCC1C (configuration not stated)
151%[activator] | N/C(=N\OC(=O)c1ccccc1F)c1ccc([N+](=O)[O-])cc1
-2% | COCCNC(=O)Cn1nc(C)c([N+](=O)[O-])c1C
10% | O=C(O)CCCNS(=O)(=O)c1ccc(Br)s1
4% | CN(C)N1C(N)=C(C#N)C(c2cccnc2)C2=C1CC(C)(C)CC2=O (configuration not stated)
16% | CN(C)N1C(=O)c2c(Cl)c(Cl)c(Cl)c(Cl)c2C1=O
5% | O=C(CN1C(=O)C(=O)N(Cc2ccccc2)C1=O)c1ccc[nH]1
16% | COC(=O)c1c(NC(=O)CSc2nnnn2C)sc(C)c1C
10% | CCOc1ccc(Nc2cc(C)nc3nncn23)cc1
22% | Cc1ccccc1NC(=O)CN1C(=O)N/C(=C\c2cccn2-c2cccc(C(=O)O)c2)C1=O
u | Cc1ccc(S(=O)(=O)c2nc(Cc3ccccc3)oc2N2CCOCC2)cc1
-20% | NC(=O)C(c1ncc(C(F)(F)F)cc1Cl)c1c(Cl)cccc1Cl (configuration not stated)

This is a subset. The share of hits here may be higher or lower than overall.
